Screening data as filed in PubChem.
HCMV NEC inh = disrupts HCMV UL50-UL53 complex binding | HTRF UL50-UL53 interaction, normalized percent inhibition | inhibition, % (no concentration beside the values) | hit rate 0.15% among 190,000;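 active means both replicates at 50% or more, plus weaker picks with an unusually low signal ratio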;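 further: stock transfer was 100 nL into about 20 µL; 0% = negative control wells and 100% = wells with untagged competitor protein; inactives centre near -12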
Sa growth 42C = S. aureus growth inhibition | S. aureus RN4220 growth, OD600, 20 h, 42 °C; stronger effect = lower value | relative growth, % (test concentration not listed) | hit rate 0.53% among 170,000 | AID 720641;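 active means growth at 42 °C up to 50% and 20 or more points under that at 30 °C, or under 10% at both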;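 further: 300 nL library stock went into each well; scaled to the means of positive and negative controls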
GIV Gai3 FP = inhibitors of GIV GBA-motif binding to rat Galpha-i3; P08753; Galpha-i3/FITC-GIV peptide fluorescence polarization, 90 min; stronger effect = lower value; scaled: aluminum fluoride 0%, vehicle 100%; percent of control (FP), % (concentration not given with the values); hit rate 0.42% among 210,000; AID 1224905;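 active means replicate mean at 85% of control or lower, very high polarization wells dropped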;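 further: wells of about 15 µL received 100 nL stock; the first replicate is given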
Target sequence (P08753 whole entry, looked up): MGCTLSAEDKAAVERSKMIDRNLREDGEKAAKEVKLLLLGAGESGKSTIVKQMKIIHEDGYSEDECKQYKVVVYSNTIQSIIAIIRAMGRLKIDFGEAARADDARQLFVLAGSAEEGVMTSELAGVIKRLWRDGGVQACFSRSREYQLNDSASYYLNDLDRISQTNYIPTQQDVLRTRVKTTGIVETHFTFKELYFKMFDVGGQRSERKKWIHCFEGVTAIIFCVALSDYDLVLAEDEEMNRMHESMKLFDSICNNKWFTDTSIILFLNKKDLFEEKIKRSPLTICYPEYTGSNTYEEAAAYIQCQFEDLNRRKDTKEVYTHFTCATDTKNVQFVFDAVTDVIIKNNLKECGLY
Sa growth 42C second temp = second read-out of Sa growth 42C, no call of its own (marks repeat the call); relative growth, %; measured here: growth at 30 °C;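 optical density after 20 h as mean of two plates; 100% = untreated growth and lower means inhibition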
Active calls of the source: *; · = not tested or not shown; & = joins results of further samples.

SMILES	HCMV NEC inh	Sa growth 42C	Sa growth 42C second temp	GIV Gai3 FP
COc1c(C(=O)O)cnc2cc(Cl)ccc12	-15	103	96	104
Cc1ccc(C=N/C(C#N)=C(\N)C#N)cc1	-1	85	100	111
O=C(Nc1ccc2nc(SCC(=O)N3CCCc4ccccc43)sc2c1)c1cccc(F)c1	-3	120	88	111
O=C1CCCC(Cn2cncn2)C1 (stereo not given)	-6	77	107	·
O=C(c1ccc2snnc2c1)N1CCOCC1	-5	99	78	101
O=C(CSC1CCS(=O)(=O)C1)OCc1c(Cl)cccc1Cl (stereo not given)	-9	130	101	·
O=C1Nc2ccccc2C1Cc1cccc(Br)c1 (stereo not given)	-15	·	·	102
N#CC1=C(N)N(c2ccccc2)C2=C(C(=O)CCC2)C1c1ccccc1 (stereo not given)	-9	87	85	·
O=C(NCC(c1cccnc1)c1c[nH]c2ccccc12)Nc1cccc(Br)c1 (stereo not given)	-23	·	·	98
CCC(C)NS(=O)(=O)c1ccc(N2C(=O)CCS2(=O)=O)cc1 (stereo not given)	-32	·	·	103
C=CCN(c1ccc(C(=O)Nc2ccc3c(c2)OCO3)cc1)S(C)(=O)=O	-6	109	94	111
Cc1cc(C)cc(NC(=O)C2CCCN(S(=O)(=O)c3cccc4nsnc34)C2)c1 (stereo not given)	2	100	96	103
CCOc1ccc(NC(=O)CSCCn2c(C)csc2=O)cc1	-11	77	94	·
CC1=C(C(=O)Nc2ccc(C)cc2)C(c2ccc(Cl)cc2Cl)NC(=O)N1 (stereo not given)	-10	·	·	100
CCOc1cc(C(=O)NCCc2cc3c(C)ccc(C)c3[nH]c2=O)cc(OCC)c1OCC	0	101	92	104
CCOC(=O)C1=CN(c2ccc(F)cc2)C=C(C(=O)OCC)C1c1cc(OC)c(OC)c(OC)c1	12	·	·	99
Cc1nn(C)c(C)c1NC(=O)/C(C#N)=C\N(C)C	-24	93	88	107
COC(=O)c1scc(C)c1NC(=O)CSc1ccc(Cl)cc1	-21	95	87	104
CC(Nc1ccc(-c2nc(-c3ccncc3)no2)cc1[N+](=O)[O-])c1ccccc1 (stereo not given)	-15	101	88	99
CC(C)c1ccc(S(=O)(=O)N2CCN(c3ccccc3F)CC2)cc1	-7	·	·	93
C=C(C)CSc1nc2sc3c(c2c(=O)n1Cc1ccccc1)CC(C)(CC)OC3 (stereo not given)	-21	100	93	109
O=C(C1CC(c2ccc(F)cc2)=NO1)N1CCOCC1 (stereo not given)	15	·	·	100
CCCCN(C)[C@H]1CS(=O)(=O)C[C@@H]1S(=O)(=O)c1cccs1	-20	·	·	96
Cc1ccc(OC(=O)CCC(=O)N2CCN(C(=O)CCC(=O)Oc3ccc(C)cc3)CC2)cc1	16	109	79	101
CCCc1noc2c1/C(=N\O)CC(C)(C)C2	2	114	82	·
CN(CC(=O)Nc1ccc2[nH]c(=O)[nH]c2c1)Cc1ccccc1	15	96	100	·
C=CCn1c(N)cc(=O)nc1SC(C)C(=O)Nc1ccc(C)cc1 (stereo not given)	-11	109	94	103
CCOc1ccc2nc(SCC(=O)N(C)C3CCCCC3)c(C#N)cc2c1	-16	123	99	94
C=CCSc1nnc(-c2cc(OCC(F)(F)F)nc(OCC(F)(F)F)c2)n1Cc1ccco1	-44	89	73	106
CC(C)(C)c1nc2c(o1)NC(N)=C(C(N)=O)C2c1ccc(OCC#N)cc1 (stereo not given)	-10	97	81	·
COc1cccc(NC(=O)C(=O)NCCc2csc(-c3ccc(C)cc3)n2)c1	·	138	91	103
Cc1cc(N(C)C)n2nc(-c3ccccc3)nc2n1	-6	·	·	104
CCSc1nc2c(c(=O)n1-c1ccc(F)cc1)SCC2	-46	87	85	105
CCN(CC)S(=O)(=O)c1ccc(C(=O)Nc2cccc(C)c2)cc1	-27	95	62	·
Cc1ccc(/C=C2/C(=O)N=C(N)N2C)s1	·	99	86	106
CC(SCC(=O)O)c1nc2ccccc2[nH]1 (stereo not given)	1	90	94	·
CCNc1ncnc2c1cnn2C	-16	97	84	100
CCOc1ccc(N(Cc2nc3nc(C)cc(C)n3n2)S(C)(=O)=O)cc1	-25	·	·	106
OC1(c2ccc(Br)cc2)CN(c2ccccc2)C2=[N+]1CCCS2 (stereo not given)	-28	110	81	100
CCOc1ccccc1NC(=O)c1cn(C2CCCC2)c(=O)c2c1c1ccccc1n2C	35	98	98	109
CC(=O)O[C@H]1C[C@@H]2CC[C@@H]3[C@H](CC[C@@]4(C)[C@H]3C[C@H]([N+]3(C)CCCCC3)[C@@H]4OC(C)=O)[C@@]2(C)C[C@@H]1N1CCCCC1	-27	100&90	92&87	95
CCOc1ccc2oc(=O)cc(CN3CCN(C(=O)c4cccc(F)c4)CC3)c2c1	-7	92	72	100
CCC(CC)C(=O)Nc1c(C(=O)N2CCN(c3ccccc3F)CC2)oc2ccccc12	4	101	101	106
O=C(COC(=O)c1ccccc1)Nc1ncc(Cl)cc1Cl	4	77	89	·
COC(=O)COC(=O)c1ccc(Oc2nc(OC)nc(N(C)C)n2)cc1	-16	·	·	104
Cc1cc(C(=O)Nc2c(C)cccc2C)n(-c2ccccc2)n1	-28	90	89	104
O=C(CSc1nc2c(oc3ccccc32)c(=O)n1-c1ccccc1)Nc1ccccc1F	-32	107	96	97
CCOC(=O)CSc1nc2c(c(=O)n1CC)C1(CCCCC1)Cc1ccccc1-2	-13	·	·	101
O=C(Nc1cccc(C(=O)N2CCN(c3ccccc3)CC2)c1)c1nsc2ccccc12	·	97	84	103
C=CCCOc1ccccc1C(N)=O	-21	97	93	104
O=C(O)c1cccc(NC(=O)c2nccnc2C(=O)O)c1	-24	112	90	96
CN(Cc1ccccc1)C(=O)COC(=O)c1sc2ccccc2c1Cl	-7	91	97	·
COc1ccc(C(=O)CSc2n[nH]c(=O)n2C2Cc3ccccc3C2)cc1	-8	106	90	98
Cc1cccc(OCC(=O)Nc2ccc3nc(N4CCCCC4)cc(C)c3c2)c1	·	91	74	112
Cc1cccc(NC(=O)Cn2c(=O)oc3ccccc32)c1	·	106	81	101
Cc1ccc(C(CNC(=O)COc2ccccc2)N2CCN(C)CC2)cc1 (stereo not given)	-45	101	85	101
CCN(C(=O)CN1C(=O)CC(C)Sc2ccc(S(=O)(=O)N3CCC(C)CC3)cc21)c1ccccc1 (stereo not given)	-25	·	·	101
COC(=O)c1sccc1N=CC1=C(O)CC(c2cccs2)CC1=O (stereo not given)	5	111	88	91
CCCCNc1ccc(-c2nc(-c3ccccc3)no2)cc1[N+](=O)[O-]	-35	95	81	98
O=C(Cn1c(=O)oc2ccccc21)N1CCCCC1	-13&-6	103	83	100&101
Further results:
SMILES	HCMV NEC inh	Sa growth 42C	Sa growth 42C second temp	GIV Gai3 FP
Cc1nn(CCCC(=O)NCCC(C)N2CCCC2)c(=O)c2c(-n3cccc3)n(-c3ccccc3)nc12 (stereo not given)	-8	·	·	107
c1ccc(SCc2nnc3sc(-c4ccccc4)nn23)cc1	-20	·	·	108
CC(OC(=O)c1ccccc1)C(=O)NCc1ccc2c(c1)OCO2 (stereo not given)	-11	87	88	·
Cc1ccc(NC(=O)CSc2nc(-c3ccc(C(C)(C)C)cc3)nc3cc(=O)[nH]n23)cc1C	·	81	86	97
CCN(Cc1ccccc1)Cc1c(O)ccc2c(=O)c(-c3ccccc3)c(C(F)(F)F)oc12	19	100	104	107
COc1ccccc1C(=O)NCC(C)(C)CN=C1NS(=O)(=O)c2ccccc21	-52	99	80	101
O=C(COC(=O)c1ccccc1)NCc1ccco1	-35	102	86	·
CC(C)(C)OC(=O)/C(C#N)=C/c1cccs1	-92	94	92	109
CC(C)(C)C1CCc2c(sc3nc(-c4cccs4)oc(=O)c23)C1 (stereo not given)	·	99	87	103
CCOC(=O)c1cnn(CCOC(=O)c2ccco2)c1NC(=O)c1ccco1	0	106	100	108
O=C(c1ccccc1)c1ccc2nc(Cl)c3nncn3c2c1	·	80	82	106
Cc1ccccc1NC(=O)c1c(C)nc(SCC(=O)c2ccc(O)c(O)c2)c(C#N)c1-c1cccnc1	-24	·	·	110

Quoted at random: seven entries already listed
SMILES	HCMV NEC inh	Sa growth 42C	Sa growth 42C second temp	GIV Gai3 FP
CCOc1ccc2oc(=O)cc(CN3CCN(C(=O)c4cccc(F)c4)CC3)c2c1	-7	92	72	100
CC(C)(C)C1CCc2c(sc3nc(-c4cccs4)oc(=O)c23)C1 (stereo not given)	·	99	87	103
CN(Cc1ccccc1)C(=O)COC(=O)c1sc2ccccc2c1Cl	-7	91	97	·
CC(OC(=O)c1ccccc1)C(=O)NCc1ccc2c(c1)OCO2 (stereo not given)	-11	87	88	·
CCOc1ccc(NC(=O)CSCCn2c(C)csc2=O)cc1	-11	77	94	·
Cc1cccc(NC(=O)Cn2c(=O)oc3ccccc32)c1	·	106	81	101
CCC(C)NS(=O)(=O)c1ccc(N2C(=O)CCS2(=O)=O)cc1 (stereo not given)	-32	·	·	103

Further structures follow.
SMILES	HCMV NEC inh	Sa growth 42C	Sa growth 42C second temp	GIV Gai3 FP
CCOC(=O)N1CCC(NC(=O)c2ccc(CS(=O)(=O)c3ccc(OC)cc3)o2)CC1	·	97	84	104
O=C(NC1CCCCC1)C1c2cccn2CC(=O)N1Cc1ccc2c(c1)OCO2 (stereo not given)	-17	107	86	104
COc1ccc(Nc2nn(-c3ccc(OC(F)(F)F)cc3)nc2C(C)=O)cc1	-22	117	95	102
COc1ccc(-n2c(Cn3ncc4ccccc4c3=O)n[nH]c2=S)cc1	-21	87	83	94
CCOc1ccc(NC(=O)CC2C(=O)N(c3cccc(C)c3)C(=O)N2Cc2ccco2)cc1 (stereo not given)	·	118	85	107
CCC(=O)Nc1cc(C(=O)O)ccc1Sc1ccccc1	2	117	97	98
CCN(CC)S(=O)(=O)c1ccc2nc(NC(=O)c3cc(OC)c(OC)c(OC)c3)sc2c1	-25	83	87	106
CC1CCC(N2C(=O)c3cc4occc4n3CC2(C)C(=O)NC2CCCCC2)CC1 (stereo not given)	2	·	·	100
CC1CN(CN2C(=O)c3ccccc3C2=O)CC(C)O1 (stereo not given)	-49	91	80	·
O=S(=O)(c1ccccc1)c1nnn2c1nc(NCc1cccs1)c1sccc12	·	112	85	103
CC(C)(C)c1ccc(NNC(=O)c2ccno2)cc1	-19	88	92	100
CCOc1ccc(C2=NC(c3ccc(F)cc3)=Nc3ccc(OCC)cc3N2)cc1	-17	·	·	104
COc1cc(C(=O)N(CCc2ccccc2)C2CC3CCC(C2)N3C)cc(OC)c1OC (stereo not given)	-1	99	71	97
O=c1c(N2CCCC2)c(Cl)cnn1-c1ccccc1	-47	104	84	97
CCc1ccc(NCc2cc3ccc(OC)cc3n(CC(=O)Nc3ccccc3OC)c2=O)cc1	·	82	85	99
CCOc1ccc(NC(=O)C2CSC(c3ccncc3)=N2)cc1 (stereo not given)	-12	102	83	99
O=C(NC(=S)NC1CCCCC1NC(=S)NC(=O)c1ccco1)c1ccco1 (stereo not given)	-20	79	66	·
CCOC(=O)c1c(NC(=O)NCc2cccn2Cc2ccc(Cl)cc2)sc2c1CCCC2	-24	·	·	100
O=C(CSc1ccccc1)NCc1ccc2c(c1)CCN2C(=O)c1ccccc1	·	43	30	101
CN(C1CCS(=O)(=O)C1)S(C)(=O)=O (stereo not given)	4	92	99	95
O=C(NCCCN1CCCC1=O)c1ccc2c(c1)N(Cc1ccccc1F)C(=O)c1ccccc1S2(=O)=O	-1	94	88	98
Cc1ccc(NCc2nnc(SCC(=O)N3CCOCC3)o2)c(C)c1	-31	84	87	99
CCn1c(C)[n+](CC)c2ccc(S(=O)(=O)C(F)(F)F)cc21	-18	93	90	100
COC(=O)c1ccc(COC(=O)/C=C/c2c(C)nn(Cc3ccccc3)c2Cl)o1	6	113	96	·
CCS(=O)(=O)N1CCC(NC(=O)c2cc(OC)cc(OC)c2)CC1	-16	124	92	103
COc1ccc(C2=NC3Oc4c(C)cccc4C=C3C(=O)N2)c(OC)c1OC (stereo not given)	-52	96	83	101
CC(C)c1ccc(NC(=O)Cn2nc(S(=O)(=O)c3ccccc3)ccc2=O)cc1	-56	·	·	124
O=C(CN1C(=O)CC(c2ccco2)Sc2ccccc21)Nc1ccc(Br)cc1 (stereo not given)	-31	117	88	103
Cc1ccc(C)c(NC(=O)CSc2ncccn2)c1	-4	100	93	102
CCCCCn1c(=O)[nH]c2cc(C(=O)N3CCN(c4ccccc4F)CC3)ccc2c1=O	-23	96	88	102
CSc1nc(N)nc(COc2ccccc2Cl)n1	-4	105	88	104
CCOC(=O)c1nnc(Cc2ccccc2OC)o1	·	99	88	100
O=C(CCSCc1cnn(-c2ccccc2)c1-n1cccc1)NCCN1CCN(c2ccccc2F)CC1	-3	·	·	104

A run of entries of the results above:
SMILES	HCMV NEC inh	Sa growth 42C	Sa growth 42C second temp	GIV Gai3 FP
CCS(=O)(=O)N1CCC(NC(=O)c2cc(OC)cc(OC)c2)CC1	-16	124	92	103
COc1ccc(C2=NC3Oc4c(C)cccc4C=C3C(=O)N2)c(OC)c1OC (stereo not given)	-52	96	83	101
CC(C)c1ccc(NC(=O)Cn2nc(S(=O)(=O)c3ccccc3)ccc2=O)cc1	-56	·	·	124
O=C(CN1C(=O)CC(c2ccco2)Sc2ccccc21)Nc1ccc(Br)cc1 (stereo not given)	-31	117	88	103
